Screens from PubChem.
eIF4H inh: human eIF4H binding inhibitors, primary screen, translation initiation inhibitor project, biochemical, uHTS, fluorescence polarization. Eukaryotic translation initiation factor 4H (Homo sapiens), Q15056. eIF4H fluorescence polarization binding assay. inhibition, % at 35 µM. 290,000 tested, 0.94% active. AID 2012, 2009;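 active means 50% or more with normal probe brightness, or confirmed in later tests; about a fifth of its hits are not listed in these tables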;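 further: calls also rest on retests at 20 µM and on dose response follow-up; 0% = protein and probe with vehicle and 100% = probe without protein; strong numbers were not always called active; many hits fall short of the cut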
Env fusion inh: inhibitors of HIV-1 Env-driven cell-cell fusion, primary screen, HeLa-JRFL effector, CEM21 target cells, luciferase; inhibition, % at 12.3 µM; 360,000 tested, 1.1% active;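 active means mean replicate inhibition score of at least 50 and every replicate individually at or above 50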;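 further: 0% = plate neutral controls and 100% = maraviroc near 300 nM; one replicate is shown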
MT1-MMP act inh: blockers of MT1-MMP proenzyme processing, primary screen, HT1080 RFP-PRO-GFP cells, GFP/RFP fluorescence | Matrix metalloproteinase-14 (Homo sapiens), P50281 | GFP/RFP ratio fluorescence, overnight; percent of plate control window, DMSO zero | GFP/RFP ratio change, % at 20 µM | 360,000 tested, 0.061% active | AID 651647, 2012;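 active means GFP/RFP ratio change of at least 30% with cell ATP level not reduced by more than half and red fluorescence within 50% of control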; further: strong numbers were not always called active
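Assay system – RFP-PRO-GFP reporter HT1080 cells · Compound dosing – single dose of 20 µM compound, 1% DMSO final · Incubation – overnight compound exposure at 37 °C · Measure – GFP/RFP fluorescence ratio · Benchmarks – DMSO wells and RFP-L50D-GFP cells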
CSC inhib: cancer stem cell viability inhibitors, primary screen, luminescence | cancer stem cell-like cells viability | inhibition, % at 7.5 µM | 300,000 tested, 1.1% active;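 active means mean at 75% or more and at least half the replicates too; tested in HMLE shEcad cells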;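 further: 0% = median of negative and 100% = median of positive control wells; the first replicate is given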
Rce1 inhib: yeast Rce1p protease inhibitors, primary screen, biochemical, fluorescence, cell-free homogeneous; CAAX prenyl protease 2 (Saccharomyces cerevisiae (strain ATCC 204508 / S288c)), Q03530; yeast membranes, quenched prenylated peptide cleavage fluorescence; calls only; 290,000 tested, 0.27% active;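 active means fall in fluorescence gain of 50% or more versus controls, with final raw signal at or below 3038400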;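 further: plate controls were neutral control wells for no effect and wells lacking membranes for full effect; tested at 10 µM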
Target sequence (Q03530 whole entry, looked up): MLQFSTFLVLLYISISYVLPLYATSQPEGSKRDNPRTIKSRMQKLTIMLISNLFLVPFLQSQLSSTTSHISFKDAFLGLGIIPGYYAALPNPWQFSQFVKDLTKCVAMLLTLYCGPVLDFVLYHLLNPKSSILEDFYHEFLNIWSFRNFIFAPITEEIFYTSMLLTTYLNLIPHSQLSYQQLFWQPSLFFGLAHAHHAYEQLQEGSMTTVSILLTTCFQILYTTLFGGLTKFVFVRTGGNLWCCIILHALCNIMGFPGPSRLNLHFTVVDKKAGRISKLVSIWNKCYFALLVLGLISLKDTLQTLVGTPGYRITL
PABP FP inh: PABP poly(A) RNA binding inhibitors, primary screen, biochemical, fluorescence polarization, uHTS | 290,000 tested, 1% active | inhibition, % at 35 µM | Polyadenylate-binding protein 1 (Homo sapiens), P11940;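 active means 50% or more with normal probe brightness, or confirmed in later tests; about a fifth of its hits are not listed in these tables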;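 further: calls also rest on retests at 20 µM and on dose response follow-up; controls were probe without protein and protein plus probe with vehicle; some compounds called inactive have numbers as strong as hits; many hits fall short of the cut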
Yeast UUG start: modulators of yeast start codon fidelity, primary screen, whole organism, S. cerevisiae, single point, plate reader | S. cerevisiae UUG-firefly luciferase reporter, luminescence/redox ratio | 350,000 tested, 0.13% active | activity score, % at 18.7 µM;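 active means replicate mean at a twofold rise or more, about +100% in these data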;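 further: firefly luciferase made from a UUG start codon reports start codon fidelity; reporter light over untreated wells divided by growth signal over untreated wells; some hits fall short of that in this replicate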
MT1-MMP act inh RFP: recorded beside MT1-MMP act inh, whose call it bears; RFP signal change, %; measured here: RFP expression control read;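 0 = vehicle wells; hits needed this value within 50% of zero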
An asterisk follows results filed as active; i = inactive; · = no result given; & = joins results of further samples. The list is partial; the hit share may differ from the screen's.

SMILES	eIF4H inh	Env fusion inh	MT1-MMP act inh	MT1-MMP act inh RFP	CSC inhib	Rce1 inhib	PABP FP inh	Yeast UUG start
COCCNC(=O)C(c1cccs1)N(Cc1ccccc1)C(=O)Cn1nnc2ccccc21 (stereo not drawn)	-2	i	-2	0	-10	i	-1	-8
N#CC1=C(N)Oc2nc(-c3ccccc3)[nH]c2C1c1cccnc1 (stereo not drawn)	13	·	1	5	-6	i	1	-33
CCN1CCN(CC(=O)Nc2c(C(=O)OC)[nH]c3cccc(Cl)c23)CC1	-2	·	·	·	·	i	0	·
Cc1cc(-c2ccccc2)nc2c(Br)c(C(=O)O)nn12	·	·	0	1	2	i	·	-5
COc1cc(C(=O)NCc2nnc(SCC(=O)N3CCCc4ccccc43)o2)cc(OC)c1OC	2	-10	0	-2	-20	·	-2	-9
Nc1ccc(C(=O)N2CCCC2)cc1CS(=O)(=O)c1ccc(Cl)cc1	9	10	4	0	-3	i	-11	4
C/C(=N\NC(N)=O)C1CC(Cc2ccccc2)C(=O)O1 (stereo not drawn)	-8	8	0	2	1	i	-6	-8
Nc1ncnc(Nc2cccc(C(F)(F)F)c2)n1	-10	-112	1	1	10	i	3	-19
O=C(NC1CC1)c1ccc(COc2ccc(F)cc2)o1	2	·	-4	-10	-15	i	-1	-19
CC(C)Sc1nnc(Cn2c(=O)sc3ccccc32)n1-c1ccccc1	-4	13	0	0	0	i	-6	2
OCCCN=C1CCCc2c1[nH]c1ccc(Cl)cc21	-1	57*	-3	-1	3	i	-1	·
OCc1ccccc1-c1cnc2cccnn12	·	-10	-2	4	·	·	·	4
Cc1nn(Cc2c(F)c(F)c(F)c(F)c2F)c(C)c1NC(=O)c1ccc(COc2ccc(Cl)cc2Cl)o1	-3	68*	-2	-14	37	i	-3	·
CC(OC(=O)c1ccccc1C(=O)N(C)Cc1ccccc1)C(=O)NC1(C#N)CCCCC1 (stereo not drawn)	·	22	3	1	·	·	·	8
COc1ccccc1NC(=O)Cc1noc(CSc2nnc(C)s2)n1	-10	-16	-5	3	-5	i	-11	2

Limited to CSC inhib, MT1-MMP act inh RFP and eIF4H inh, for two of the compounds above:
SMILES | CSC inhib | MT1-MMP act inh RFP | eIF4H inh
OCc1ccccc1-c1cnc2cccnn12 | · | 4 | ·
Cc1nn(Cc2c(F)c(F)c(F)c(F)c2F)c(C)c1NC(=O)c1ccc(COc2ccc(Cl)cc2Cl)o1 | 37 | -14 | -3

(further entries)
SMILES	eIF4H inh	Env fusion inh	MT1-MMP act inh	MT1-MMP act inh RFP	CSC inhib	Rce1 inhib	PABP FP inh	Yeast UUG start
CC(=O)Nc1ccc(S(=O)(=O)NC2=NCN(CCOC(=O)c3ccccc3)CN2)cc1	-10	·	3	6	·	i	-7	1
Cn1c(N)c(C(=O)COC(=O)c2ccccc2C(=O)c2ccc(Cl)cc2)c(=O)n(C)c1=O	·	-55	3	-6	-20	·	·	-2
COc1cc2nc(CN3CCN(S(=O)(=O)c4ccc(Br)cc4)CC3)[nH]c(=O)c2cc1OC	·	·	-2	-6	11	·	·	-10
O=C(CN(C(=O)CCC(=O)Nc1nccs1)c1ccc(F)c(Cl)c1)NCc1ccco1	2	·	-5	-6	-1	i	2	-16
COC(=O)[C@H](C(C)C)N(Cc1ccccc1)S(=O)(=O)CCNC1CCCC1	·	-1	0	4	·	·	·	-34
Cc1c(Br)ccc(NC(=O)CCN2C(=O)C3C4CCC(C4)C3C2=O)c1C (stereo not drawn)	-8	9	-2	-3	-13	i	7	-13
Cc1nc2ccccc2nc1N1CCOCC1	-8	·	3	4	8	i	-2	-1
Cc1ccccc1Nc1nc2nonc2nc1N1CCOCC1	-7	·	0	-3	3	i	-1	-13
NC(=O)C1CCN(c2cc(Cl)nc(N)n2)CC1	21	3	-6	-3	-11	i	-8	·
COc1ccc(-c2[nH]n(-c3ccc([N+](=O)[O-])cc3)c(=O)c2C=NCc2ccccc2)cc1	-5	7	-2	-1	1	·	21	·
Cc1ccccc1CN1CCC(Oc2ccc(C(=O)NCc3ccccn3)cc2)CC1	-2	-17	3	0	·	i	0	-26
O=C(CN1CCN(c2ccccc2)CC1)NC(=O)NCc1ccco1	-8	-10	5	2	8	i	4	-6
CCCNC(=O)c1oc2ccc3c(c2c1C)C(O)CC(C)(C)O3 (stereo not drawn)	-1	7	10	4	-8	i	7	3
O=c1c2c(c(-c3ccccc3)nn1Cc1ccccc1)CCCC2	-6	12	3	-3	-1	i	7	-23
CN(CC1COc2ccccc2O1)C(=O)Cn1cc(C(F)(F)F)ccc1=O (stereo not drawn)	·	18	3	-1	-10	·	·	·
Cc1c(Br)c([N+](=O)[O-])nn1CC(=O)Nc1c(C)n(C)n(-c2ccccc2)c1=O	-9	-5	-1	0	-1	i	-1	·
O=C(NCCc1ccc2c(c1)OCCO2)c1cc2ccccc2o1	-5	26	0	-4	-8	i	2	3
CCNC(=S)NNC(=O)c1ccc2ncccc2c1	0	-2	5	3	-3	i	-9	-18
O=C1CCCN2N=C(SCC(=O)Nc3ccc([N+](=O)[O-])cc3)SC2=N1	4	14	9	5	-9	i	2	-1
COc1ccc(C2=NN(C(=O)COC(=O)c3ccc(NC(=O)CC#N)cc3)C(c3ccco3)C2)cc1 (stereo not drawn)	·	·	-43	0	67	·	·	-14
O=C(NCc1cccnc1)c1nn2cccnc2c1Cl	-2	-2	-2	4	-16	i	-9	·
COc1ccc(-n2c(/C=C(\C)O)nc(=O)c3c(C)cc(C)nc32)cc1	-1	-19	0	0	0	i	6	-3
COc1ccc(NC(=O)CCCn2cnc3ccccc3c2=O)c(OC)c1	-9	14	-5	-3	-23	i	-5	-16
Cc1ccnc(NS(=O)(=O)c2ccc(NC(=O)C3CC=CCC3C(=O)O)cc2)n1 (stereo not drawn)	14	1	1	5	-2	i	8	·
COc1ccc2oc(=O)c(C(=O)NC(C)c3ccccc3)cc2c1 (stereo not drawn)	30	-32	3	-1	-13	i	4	1
CCC(Oc1ccccc1)C(=O)Nc1ccccc1OC (stereo not drawn)	9	·	-3	-1	15	i	5	-8
Cc1nnc(NC(=O)c2nc(S(=O)(=O)Cc3ccccc3)ncc2Cl)s1	0	-139	-2	0	·	i	-11	22
CC1=NN(C(=O)c2ccc(Cn3nc(C)c(Br)c3C)cc2)C(O)(C(F)(F)F)C1 (stereo not drawn)	-7	14	3	1	-2	i	-4	·
CCCn1nnc(NCc2ccc(OCc3cccs3)c(OC)c2)n1	2	-1	4	1	·	i	31	-2
O=C(Nc1nc2ccc(F)cc2s1)c1cccs1	-4	-122	3	-5	11	i	-11	·

Single records, as listed above.
CC1=NN(C(=O)c2ccc(Cn3nc(C)c(Br)c3C)cc2)C(O)(C(F)(F)F)C1 (stereo not drawn) as listed: eIF4H inh = -7; Env fusion inh = 14; MT1-MMP act inh = 3; MT1-MMP act inh RFP = 1; CSC inhib = -2; Rce1 inhib = i; PABP FP inh = -4; Yeast UUG start = ·
O=C(Nc1nc2ccc(F)cc2s1)c1cccs1 as listed: eIF4H inh = -4; Env fusion inh = -122; MT1-MMP act inh = 3; MT1-MMP act inh RFP = -5; CSC inhib = 11; Rce1 inhib = i; PABP FP inh = -11; Yeast UUG start = ·

Some of these compounds in order of formula weight, smallest number first:
SMILES	eIF4H inh	Env fusion inh	MT1-MMP act inh	MT1-MMP act inh RFP	CSC inhib	Rce1 inhib	PABP FP inh	Yeast UUG start
CCNC(=S)NNC(=O)c1ccc2ncccc2c1	0	-2	5	3	-3	i	-9	-18
CCC(Oc1ccccc1)C(=O)Nc1ccccc1OC (stereo not drawn)	9	·	-3	-1	15	i	5	-8
Cc1c(Br)c([N+](=O)[O-])nn1CC(=O)Nc1c(C)n(C)n(-c2ccccc2)c1=O	-9	-5	-1	0	-1	i	-1	·

(list continues)
SMILES	eIF4H inh	Env fusion inh	MT1-MMP act inh	MT1-MMP act inh RFP	CSC inhib	Rce1 inhib	PABP FP inh	Yeast UUG start
COc1ccc(-n2nnnc2CNC(=O)C(=O)c2c(C)[nH]c3ccccc23)cc1	·	·	2	-5	-20	i	·	·
Cc1ccc(-c2csc(N/N=C/C=C/c3ccccc3)n2)cc1	-7	-40	-1	-1	-3	i	-1	-8
Cc1sc2nc(CSc3cccc(C(F)(F)F)c3)[nH]c(=O)c2c1C	-13	-5	3	-3	-8	i	-9	·
O=C(OCn1nnc2ccccc2c1=O)c1ccc(N2CCOCC2)c([N+](=O)[O-])c1	0	-13	4	-2	3	i	16	·
CCOc1ccc(C(C)=O)cc1CSc1nc2nc(C)cc(C)n2n1	4	7	-2	1	-5	i	-8	·
CN(CC(=O)Nc1ccc(F)c(F)c1F)C(=O)c1cc(-c2ccncc2)nc2ccccc12	·	12	-2	4	-13	i	·	5
CC1(c2ccccc2)NC(=O)N(CC(=O)Nc2ccc(C(N)=O)cc2)C1=O (stereo not drawn)	-10	11	-2	2	-16	i	-7	-5
CCOc1ccc(OCCOC(=O)CN2C(=O)NC3(CCCC3)C2=O)cc1	·	-6	3	4	-7	i	·	7
Cc1cccc(OCc2nc(-c3nonc3N)no2)c1C	6	-165	3	0	18	i	-5	-12
O=C(O)CC1S/C(=N/N=C/c2ccc(Br)cc2)N(c2ccccc2)C1=O (stereo not drawn)	8	12	2	0	·	i	-3	1
COc1ccccc1NC(=O)N(C)C[C@H]1Oc2cc(Br)ccc2S(=O)(=O)N([C@H](C)CO)C[C@H]1C	·	2	0	6	·	·	·	23&1&51
CCC(CC)C(=O)Nc1cc(OC)c(OC)cc1C(=O)O	3	-55	-4	0	-2	i	-1	-7
Cc1ccc(NCc2nnc(SCC(=O)NNC(=O)Cc3ccccc3)n2C)cc1	-8	7	-6	-2	-10	i	10	-5

2 entries from above, as a markdown table.
| SMILES | eIF4H inh | Env fusion inh | MT1-MMP act inh | MT1-MMP act inh RFP | CSC inhib | Rce1 inhib | PABP FP inh | Yeast UUG start |
| --- | --- | --- | --- | --- | --- | --- | --- | --- |
| Cc1sc2nc(CSc3cccc(C(F)(F)F)c3)[nH]c(=O)c2c1C | -13 | -5 | 3 | -3 | -8 | i | -9 | · |
| O=C(OCn1nnc2ccccc2c1=O)c1ccc(N2CCOCC2)c([N+](=O)[O-])c1 | 0 | -13 | 4 | -2 | 3 | i | 16 | · |
